# Compound activity deposited in PubChem by several laboratories.
# ALR H2O2 inh: inhibitors of human ALR sulfhydryl oxidase, primary screen, biochemical, H2O2 detection, HRP-luminol luminescence, single point; purified ALR, DTT oxidation; inhibition, % (no concentration beside the values); actives 3.8% (n = 290,000);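 active means mean and each replicate at 75% or more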;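 further: stock transfer was 7.5 nL into about 7.5 µL; 0% = neutral wells and 100% = wells with inactivated enzyme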
# HNF4A DNA FP: change in binding of human HNF4A to DNA, primary screen, biochemical, fluorescence polarization, FITC-DNA; Hepatocyte nuclear factor 4-alpha (Homo sapiens), P41235; 1 h; activity change, % at 10 µM; actives 0.3% (n = 360,000); in the data active means activity change above about 30%, passing the limit was not always enough;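 further: controls were the assay level and a saturating level of protein; the project sought stronger binding though the title names inhibitors; some compounds called inactive have numbers as strong as hits; positive values seem to mean higher polarization but the record does not say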
# Target sequence (P41235 whole entry, looked up): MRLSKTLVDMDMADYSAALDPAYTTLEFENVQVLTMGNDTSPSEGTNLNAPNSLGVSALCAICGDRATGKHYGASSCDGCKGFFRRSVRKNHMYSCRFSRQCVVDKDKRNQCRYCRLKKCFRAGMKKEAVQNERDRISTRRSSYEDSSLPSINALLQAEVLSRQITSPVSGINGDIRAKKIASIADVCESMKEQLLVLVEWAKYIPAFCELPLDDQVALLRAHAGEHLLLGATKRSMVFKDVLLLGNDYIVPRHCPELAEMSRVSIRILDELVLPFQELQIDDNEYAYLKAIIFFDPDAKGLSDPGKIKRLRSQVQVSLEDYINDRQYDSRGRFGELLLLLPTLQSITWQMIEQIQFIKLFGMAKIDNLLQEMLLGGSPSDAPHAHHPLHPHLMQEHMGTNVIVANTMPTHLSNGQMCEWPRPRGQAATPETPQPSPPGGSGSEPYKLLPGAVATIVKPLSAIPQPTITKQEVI
# FGF22 binding: binders of human FGF22 protein, primary screen, FGF22 synaptogenesis inhibitor project, biophysical, thermal shift, single point | calls only at 9.99 µM | recombinant FGF22 thermal shift, SYPRO orange fluorescence; percent of sucrose octasulfate shift, DMSO zero | Fibroblast growth factor 22 (Homo sapiens), Q9HCT0 | AID 651658, 2012 | actives 1.5% (n = 340,000);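 active means melting point raised past a set limit in the mean and every replicate; three in four hits are not shown here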
# Target sequence (Q9HCT0 whole entry, looked up): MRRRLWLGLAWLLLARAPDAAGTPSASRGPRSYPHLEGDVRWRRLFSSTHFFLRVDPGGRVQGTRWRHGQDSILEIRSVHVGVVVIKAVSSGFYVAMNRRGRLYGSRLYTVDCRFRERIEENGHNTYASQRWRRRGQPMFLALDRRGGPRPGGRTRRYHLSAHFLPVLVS
# UCH37 inh: inhibitors of human UCH37 deubiquitinase, primary screen, biochemical, Ub-AMC cleavage, fluorescence | Ubiquitin carboxyl-terminal hydrolase isozyme L5 (Homo sapiens), Q9Y5K5 | actives 0.33% (n = 330,000) | inhibition, % (no concentration beside the values) | AID 588478, 2011 | purified proteasome/UCH37;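 active means mean of two replicates above 20%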;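 further: 0% = compound-free wells with enzyme and 100% = wells lacking proteasome; stock transfer was 100 nL into about 20 µL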
# Target sequence (Q9Y5K5 whole entry, looked up): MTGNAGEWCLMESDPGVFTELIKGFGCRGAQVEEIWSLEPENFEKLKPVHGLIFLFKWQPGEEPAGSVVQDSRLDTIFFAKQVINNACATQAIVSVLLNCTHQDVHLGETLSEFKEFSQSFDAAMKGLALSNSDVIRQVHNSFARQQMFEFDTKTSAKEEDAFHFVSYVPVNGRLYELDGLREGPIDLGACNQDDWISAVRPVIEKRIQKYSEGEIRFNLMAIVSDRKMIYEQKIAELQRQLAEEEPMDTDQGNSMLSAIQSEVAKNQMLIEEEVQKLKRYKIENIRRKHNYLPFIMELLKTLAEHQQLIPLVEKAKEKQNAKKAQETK
#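 Reagent: Ub-AMC substrate; assay system: Proteasome-associated human UCH37 deubiquitinase; controls: no-proteasome and no-compound wells; read-out: % inhibition of Ub-AMC cleavage fluorescence; timing: 30 min preincubation with enzyme, 25 min cleavage at room temperature; signal: AMC fluorescence from Ub-AMC cleavage, excitation 355 nm, emission 460 nm; buffer or medium: Tris-HCl pH 7.4 plus ovalbumin, ATP-MgCl2, DTT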
# Ecoli rRNA inh: reduced GFP signal of wild-type E. coli, primary screen, bacterial rRNA inhibitor project, GFP/RFP fluorescence, OD600, single point | E. coli WT GFP vs humanized-ribosome RFP mutants, 24 h; stronger effect = lower value; DMSO median 0, no signal -100 | GFP signal change (wild-type ribosome), % (concentration not given with the values) | actives 1.6% (n = 350,000);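 active means significant combined selectivity score with lowered wild-type GFP, culture density cut under 30%, mutant RFP and density less affected; inactive means any of these conditions unmet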; further: one replicate is shown; some compounds called inactive have numbers as strong as hits
# B2AR ag: beta2AR agonists driving receptor internalization, primary screen, cell-based, FAP fluorogen, flow cytometry; Beta-2 adrenergic receptor (Homo sapiens), P07550; Am2.2-beta2AR cells; reference of the scale not given here; response, % (concentration not given with the values); actives 0.43% (n = 340,000);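 active means response above a set limit, near 3 SD of response in nonfluorescent compounds, cut at about 42% in these data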;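 further: stock transfer was 100 nL into about 11 µL; a reference agonist was the positive control; negative values mostly stem from fluorescent compounds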
# Ecoli growth: E. coli growth inhibition, primary screen, OD600; OD600 absorbance (test concentration not listed); AID 1053175, 2014; Escherichia coli growth, 23 h; stronger effect = lower value; actives 0.21% (n = 330,000);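 active means OD600 absorbance below the run mean of sample wells minus 3.6 SD, in any replicate, cut at about 0.56 in these data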;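 further: stock transfer was 300 nL into about 60 µL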
# Ecoli rRNA inh OD600: also measured in Ecoli rRNA inh; calls as there; OD600 change, %; measured here: OD600 growth;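 optical density of the mix in the first replicate; 0 = DMSO median and -100 = no signal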
# Ecoli rRNA inh RFP: further read-out of Ecoli rRNA inh, marked with its call; RFP signal change, %; measured here: RFP humanized mutant strains;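 first replicate; 0 = DMSO median and -100 = no signal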
# * hit, by the source's call; i = inactive; / = not tested or not shown. An excerpt; rates above refer to the full screens.
SMILES,ALR H2O2 inh,HNF4A DNA FP,FGF22 binding,UCH37 inh,Ecoli rRNA inh,Ecoli rRNA inh OD600,Ecoli rRNA inh RFP,B2AR ag,Ecoli growth
Cc1ccc(S(=O)(=O)N(C)c2ccc(OCC(=O)NCC3(N(C)C)CCCCC3)cc2)cc1,-12.3,0.8,i,3.1,-0.2,-5.2,-1.3,-6.6,0.7
c1ccc(-c2nnc3sc(-c4csc5c4CCCC5)nn23)cc1,1.0,0.2,/,2.1,/,/,/,-15.2,0.787
Cc1c(CC(=O)NCCCC(=O)O)c(=O)oc2cc3c(cc12)CCC(C)(C)O3,2.5,-1.1,i,i,1.1,3.3,1.8,-3.9,0.697
CCCC(=O)Nc1cc(OC)c(OC)cc1C(=O)O,-11.8,-2.1,/,5.1,/,/,/,-0.4,0.719
O=C(Nc1nnc([C@@H]2C[C@H](O)[C@@H](CO)O2)s1)c1cccc(Oc2ccccc2)c1,/,-7.5,i,/,-11.4,-61.8,-11.6,/,/
CCc1cccc(Nc2c3c(nc4ncnn24)CCC3)c1,-9.9,-2.4,/,1.8,-23.5,-34.9,-9.5,-2.7,0.64
O=C(C1CCCO1)N1CCN(S(=O)(=O)c2cc(F)ccc2F)CC1 (configuration not stated),-8.2,-0.3,i,-0.5,7.1,-0.6,0.6,0.0,0.714
Cc1[nH]n(-c2ccccc2)c(=S)c1C=Nc1cccc([N+](=O)[O-])c1,-3.3,1.3,/,4.3,/,/,/,-7.3,0.771
COc1ccc(C(=O)NN)cc1,-21.6,2.7,i,4.6,12.4,2.5,-1.0,1.0,0.669
CCNC(=O)C1(C)CCCN(C(=O)c2sccc2C)C1 (configuration not stated),/,1.7,i,/,3.6,2.1,6.1,/,/
CCc1nc(SCc2ccc(OCC(C)C)cc2)n[nH]1,-4.4,1.7,i,3.1,0.8,0.4,-0.4,-7.7,0.653
CCNC(=O)CN(c1ccc(C)cc1)S(=O)(=O)c1ccccc1,/,2.0,/,1.0,/,/,/,6.0,0.695
CCOc1cc2[nH]c(=S)n(CC3CCCO3)c(=O)c2cc1OCC (configuration not stated),95.2*,0.9,/,5.7,/,/,/,-1.7,0.727
COc1ccc(CCNC(=O)C2CCN(c3ccc(N4CCOCC4)nn3)CC2)c(OC)c1,11.8,-0.4,i,-190.6,-1.6,-1.3,1.1,5.6,0.707
CC(=O)Nc1sc(C)c(C)c1C(=O)OCC(=O)Nc1ccccc1C(F)(F)F,/,-2.1,i,/,5.1,20.3,0.8,/,/
COc1ccccc1CNC(=O)CCC(=O)Nc1nnc(C(C)C)s1,-5.1,0.0,/,4.8,/,/,/,3.3,0.711
Cc1cc(=O)oc2cc(NC(=O)C3CC(=O)N(Cc4ccccc4)C3)ccc12 (configuration not stated),-0.8,-4.4,/,-146.7,/,/,/,2.9,0.712
CCOC(=O)N/N=C\c1ccc(-c2cc(Cl)ccc2Cl)o1,-4.6,3.4,i,/,16.9,14.9,2.2,-0.4,/
OC(COc1ccc2c(c1)OCO2)CN1CCN(c2ccccc2)CC1 (configuration not stated),67.2,4.3,i,0.1,4.9,-0.5,0.8,3.9,0.628
Cc1ccc(Cl)cc1NS(=O)(=O)Cc1ccccc1,-14.0,1.9,i,4.3,-25.1,-56.0,-2.1,13.6,0.677
O=C(O)c1ccc(Cn2nnc3sc4c(c3c2=O)CCCC4)cc1,5.2,-4.1,i,5.6,-17.3,-22.2,-4.6,0.7,0.773
Nc1ccccc1NC1=CC(=O)CC(c2ccccc2)C1 (configuration not stated),48.3,/,/,4.9,/,/,/,/,0.663
CCOC(=O)c1ccc(N2C(=O)Cc3ccccc3C2=O)cc1,/,1.6,i,3.1,-1.6,14.8,0.4,2.9,0.716
Cc1ccc(C)c(-c2[nH]ncc2CN2CCCC(CO)(Cc3ccccc3C)C2)c1 (configuration not stated),-74.0,0.4,i,2.7,-30.4*,-14.7*,5.2*,10.3,0.629
CC(=O)N1CCc2cc(NC(=O)c3ccc(C)cc3)ccc21,-7.0,-3.7,/,5.6,-4.0,-2.4,-1.1,-7.5,0.636
Cc1nn(C)c(C)c1NC(=O)COc1ccc(F)cc1Br,-9.5,4.9,i,-1.0,1.0,-1.1,-3.6,-15.9,0.673
CC1(C)COCN1S(=O)(=O)c1ccc(C(=O)Nc2nnc(-c3ccc(Cl)s3)o2)cc1,-12.5,/,/,8.5,/,/,/,/,0.715
COc1cc(C2C3=C(CC(C)(C)CC3=O)N(C)C(=O)N2C)cc(OC)c1OC (configuration not stated),-3.6,-9.6,/,1.8,/,/,/,4.5,0.736
O=C(CS(=O)(=O)c1ccccc1)Nc1nc2ccccc2s1,/,-1.9,i,6.7,-22.9,-27.8,-9.9,2.7,0.678
Cc1ccc(N(C)S(=O)(=O)c2cccc(C(=O)Nc3nc4ccccc4[nH]3)c2)cc1,1.3,-3.1,/,-13.2,/,/,/,-4.9,0.696
O=C(Nc1cccnc1)c1ccc(Cl)c(S(=O)(=O)N2CCc3ccccc32)c1,/,0.8,/,-1.2,-25.6*,-16.9*,0.2*,2.2,0.722
Cc1ccccc1NC(=O)COC(=O)/C=C/c1cn(-c2ccccc2)nc1-c1cccnc1,2.6,7.2,/,-38.4,/,/,/,-1.2,0.693
Cc1nc(C(F)(F)F)ccc1C(=O)Nc1ccc(C(F)(F)F)cn1,1.1,-0.5,i,2.8,7.9,9.8,0.0,-2.3,0.663
Cc1cc(C)cc(NC(=O)N2CCCC2C(=O)Nc2ccc(-n3cnnn3)cc2)c1 (configuration not stated),-1.7,-1.5,/,2.2,/,/,/,8.3,0.688
CCN(CC(=O)Nc1ccc(OC)cc1)C(=O)c1ccc(=O)n(Cc2ccccc2)n1,0.4,-0.8,i,-1.7,0.5,-5.7,2.7,1.1,0.651
COC(=O)c1c(NC(=O)C(C)C)sc2c1C(C(=O)OC)CC2 (configuration not stated),-5.1,2.0,/,-1.6,/,/,/,-26.1,0.75
Cc1ccccc1N1C(=O)C(Cl)=C(N2CCCCCC2)C1=O,4.8,4.3,/,5.1,/,/,/,-4.6,0.714
O=C(Cn1cnc2ccc(Cl)cc2c1=O)NC1CCS(=O)(=O)C1 (configuration not stated),/,-0.1,i,3.3,22.0,6.6,0.2,0.5,0.671
COc1cccc(CC2(CO)CCCN(Cc3ccccc3-c3ccco3)C2)c1 (configuration not stated),-8.3,6.5,i,0.6,-0.8,-9.7,9.3,-0.1,0.699
Cc1ccc(NC(=O)c2cccc(OCc3c(C)noc3C)c2)cc1,-8.9,4.2,/,0.4,/,/,/,-6.4,0.688
O=C1/C(=C/c2ccccc2)CCCc2ccccc21,-6.3,-4.2,/,3.3,/,/,/,3.2,0.669
CCOC(=O)c1c(C)[nH]c(N=Nc2cc(C(=O)O)cc(C(=O)O)c2)c1C,3.6,-16.4,i,24.0*,16.6,11.1,1.4,2.6,0.722
CC(C)C[C@H]1CNC(=S)N1CC1CCN(CCCC2CCCC2)CC1,/,2.3,i,/,3.3,9.3,-5.5,-0.4,/
CN1CCN(/N=C/c2ccc(-c3ccccc3)cc2)CC1,-5.1,-0.8,i,/,-3.2,0.9,-2.9,14.2,/
COC(=O)C(NS(=O)(=O)c1ccccc1Cl)c1ccccc1 (configuration not stated),2.4,-0.5,i,1.9,-3.0,-0.8,-2.7,7.8,0.655

# Quoted at random: 4 records from the list.
SMILES,ALR H2O2 inh,HNF4A DNA FP,FGF22 binding,UCH37 inh,Ecoli rRNA inh,Ecoli rRNA inh OD600,Ecoli rRNA inh RFP,B2AR ag,Ecoli growth
Cc1ccc(NC(=O)c2cccc(OCc3c(C)noc3C)c2)cc1,-8.9,4.2,/,0.4,/,/,/,-6.4,0.688
CN1CCN(/N=C/c2ccc(-c3ccccc3)cc2)CC1,-5.1,-0.8,i,/,-3.2,0.9,-2.9,14.2,/
CC(C)C[C@H]1CNC(=S)N1CC1CCN(CCCC2CCCC2)CC1,/,2.3,i,/,3.3,9.3,-5.5,-0.4,/
CCOC(=O)c1c(C)[nH]c(N=Nc2cc(C(=O)O)cc(C(=O)O)c2)c1C,3.6,-16.4,i,24.0*,16.6,11.1,1.4,2.6,0.722

# (list continues)
SMILES,ALR H2O2 inh,HNF4A DNA FP,FGF22 binding,UCH37 inh,Ecoli rRNA inh,Ecoli rRNA inh OD600,Ecoli rRNA inh RFP,B2AR ag,Ecoli growth
COc1ccc(CNN2CCCCC2C(=O)Nc2ccc(OC)c(OCC(C)C)c2)cc1OC (configuration not stated),-1.5,2.2,i,-0.9,5.5,5.9,8.4,15.8,0.703
S=c1[nH]nc(COc2ccccc2)n1Cc1ccccc1,48.8,0.4,i,-1.4,3.8,8.3,9.9,4.5,0.693
Cc1ccc(/C(O)=C2\C(=O)C(=O)N(C)C2c2ccccc2[N+](=O)[O-])cc1 (configuration not stated),-2.7,3.0,i,4.7,-2.6,-0.1,-4.6,-4.0,0.678
CC(C)(C)SCCNC(=O)CN1C(=O)c2ccccc2S1(=O)=O,-22.2,4.7,i,-0.2,2.2,4.0,-1.9,-11.3,0.776
Cc1cc(S(=O)(=O)N(Cc2ccccc2Cl)c2ccc3c(c2)CCC3)ccc1-n1cnnn1,-2.3,0.6,/,0.7,/,/,/,-7.5,0.74
Brc1cc(Br)c2ncnc(N3CCCCC3)c2c1,9.8,-0.4,/,2.2,/,/,/,39.4,0.705
O=C1c2cccc([N+](=O)[O-])c2C(=O)N1c1c[nH]c(=O)[nH]c1=O,-5.5,-2.7,i,4.9,4.2,1.0,-4.0,-7.7,0.722
Cc1nc(SCC(=O)c2ccccc2)n[nH]1,90.0*,-1.9,/,1.1,/,/,/,-4.5,0.66
O=C1c2ccccc2-c2onc3c(N4CCN(CCO)CC4)cc(N4CCN(C(=O)c5ccco5)CC4)c1c23,9.9,4.8,i,/,-11.2,13.7,27.4,25.4,/
O=[N+]([O-])c1ccc(Oc2ccc(S(=O)(=O)N3CCOCC3)cc2)cc1,-1.0,-0.7,i,3.0,6.3,-0.2,-3.1,2.8,0.672
CCc1nc(N)c(C#N)c(-c2ccc(O)c(OC)c2)c1C,55.5,-0.3,/,2.8,/,/,/,2.0,0.682

# Single records (already shown):
# Profile of O=C1c2ccccc2-c2onc3c(N4CCN(CCO)CC4)cc(N4CCN(C(=O)c5ccco5)CC4)c1c23 → ALR H2O2 inh: 9.9; HNF4A DNA FP: 4.8; FGF22 binding: i; UCH37 inh: /; Ecoli rRNA inh: -11.2; Ecoli rRNA inh OD600: 13.7; Ecoli rRNA inh RFP: 27.4; B2AR ag: 25.4; Ecoli growth: /
# Profile of COc1ccc(CNN2CCCCC2C(=O)Nc2ccc(OC)c(OCC(C)C)c2)cc1OC (configuration not stated) → ALR H2O2 inh: -1.5; HNF4A DNA FP: 2.2; FGF22 binding: i; UCH37 inh: -0.9; Ecoli rRNA inh: 5.5; Ecoli rRNA inh OD600: 5.9; Ecoli rRNA inh RFP: 8.4; B2AR ag: 15.8; Ecoli growth: 0.703
# Profile of S=c1[nH]nc(COc2ccccc2)n1Cc1ccccc1 → ALR H2O2 inh: 48.8; HNF4A DNA FP: 0.4; FGF22 binding: i; UCH37 inh: -1.4; Ecoli rRNA inh: 3.8; Ecoli rRNA inh OD600: 8.3; Ecoli rRNA inh RFP: 9.9; B2AR ag: 4.5; Ecoli growth: 0.693
